HepG2 – HepG2 cell cytotoxicity, dose response, cytotoxicity control, ATP luminescence, cherry-pick, activator set 2 (AID 1053143); 3.7% of 3,400 active; activity change, negative = cytotoxicity, % at the top dose, mostly 26 µM; hits show AC50 in µM; HepG2 viability, CellTiter-Glo ATP luminescence, 72 h;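 active means fitted AC50 at most twice the highest valid dose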;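 further: 0 = neutral control and -100 = positive control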
* marks the source's active call; other numbers are inactive results; [ ] = remark or other dose.

structure	HepG2
c1ccc(CCn2nnc3ccccc32)cc1	-18%
CCOc1ccc(N2C(=O)CC(SCCN)C2=O)cc1 (configuration not stated)	0%
COC(=O)c1ccc(-c2cc3onc(-c4ccccc4)c3c(=O)n2C)cc1	13%
Cc1oc(=O)c(NC(=O)c2cccc(Cl)c2)cc1C(=O)c1ccccc1	26µM*
c1ccc(OCc2nc3ccccc3[nH]2)cc1	18%[12 µM]
O=C(CSCc1ccccc1)N1CCc2ccccc21	-19%
COc1ccccc1C1=NOC(COC(=O)c2ccc([N+](=O)[O-])cc2)C1 (configuration not stated)	-12%
Brc1ccccc1-c1nc2c3ccccc3ncn2n1	-17%
Clc1cc(Cl)c2nc(N3CCOCC3)sc2c1	-14%
CCOC(=O)c1cc(OCC)c2c(ccc3ccccc32)n1	-17%
O=C(COC(=O)c1cccc(O)c1)c1ccccc1	-10%
Cc1ccc(Nc2nc3ccccc3o2)cc1F	-29%[12 µM]
Nc1ccc(-c2nc3c(Cl)c(N)ccc3[nH]2)cc1	-8%
CC(C)(C)c1ccc(OCCn2ccccc2=O)cc1	-1%
Cn1cnc2c1c(=O)n(Cc1ccccc1)c(=O)n2C	-8%
CCOC(=O)c1c(C)[nH]c(N=Nc2cccc(OC)c2)c1C	-19%
CN1CCN(Cc2cc(Cl)c3cccnc3c2OC(=O)c2cccs2)CC1	26µM*
O=C(Nc1cc2c(cc1Br)OCCCO2)c1ccccc1	-10%
CCCCCn1c(CN2CCN(C(=O)c3ccco3)CC2)nc2c1c(=O)n(C)c(=O)n2C	-16%
COc1ccc(-c2csc(Nc3ncccn3)n2)cc1C	-6%
O=S(=O)(/N=C(/Nc1nc2ccccc2s1)c1ccccc1)c1ccccc1	6%[6 µM]
O=C1NC(=Nc2ccccc2)S/C1=C/c1cccs1	-23%
CCOC(=O)c1ccc2nc(NC(C)=O)sc2c1	9%
c1ccc(-c2csc(N3CCOCC3)n2)cc1	-5%
COc1ccc(C2CC(C)(c3ccc(OC)cc3)Nc3ccccc3N2)cc1 (configuration not stated)	-5%
Cc1c(C(=O)Nc2ccccc2)cnn1-c1ccccc1	-9%
O=C1c2ccccc2S(=O)(=O)N1CC1CC(c2ccccc2Cl)=NO1 (configuration not stated)	-6%
COc1n[nH]c(C(=O)Nc2nc3ccccc3s2)c1[N+](=O)[O-]	-8%
COc1cc(NC(=O)c2ccccc2Cl)ccc1NC(=O)c1ccco1	-16%
COc1ccc(NC(=O)CSc2nccn2Cc2ccco2)cc1	1%
CN(C)c1ccc(N=c2sc3ccccc3n2C)cc1	-13%
CCOC(=O)/C=C1/N(C)c2ccccc2C1(C)C	3%
C(=C\c1ccccc1)/C=N/Nc1nc2ccccc2[nH]1	-10%
COc1ccc(NC(=O)c2cnc3sccn3c2=O)cc1	3%
COc1ccccc1OCC(=O)Nc1ncc(C)s1	-3%
Cc1ccc(NC(=O)c2ccccc2Cl)c(Cl)c1	10%
O=C(/C(=C/c1ccc(Cl)cc1)c1nc2ccccc2[nH]1)c1ccccc1	7.9µM*
Cc1ccc(C2=N/C(=C\N3CCCCC3)C(=O)O2)cc1	-8%
O=C1CSC(c2cccnc2)N1Cc1ccc(Cl)cc1 (configuration not stated)	-8%[12 µM]
CC(Sc1ccsc1[N+](=O)[O-])C(=O)NCc1ccccc1 (configuration not stated)	-14%
Cc1cccc(Cc2cnc(NC(=O)c3ccc(C)o3)s2)c1	-22%
CCOC(=O)c1oc2c(c1C)/C(=N/O)CCC2	-3%
O=C(COC(=O)c1ccc[nH]c1=O)NCCc1ccc(Cl)cc1Cl	-2%
CCCSc1nnc(NC(=O)Nc2ccccc2)s1	-13%
OC[C@H]1O[C@@H](c2nc(-c3nc(-c4ccc(F)cc4)no3)cs2)[C@H](O)[C@@H]1O	-10%[12 µM]
COC(=O)c1c(-c2ccc(S(C)(=O)=O)cc2)sc2cc(OC)ccc12	-17%
CCCCN1C(=O)c2cccc3cc(O)cc(c23)C1=O	21%
O=C(Nc1ccc2oc(-c3ccccc3F)nc2c1)c1ncn[nH]1	-12%
CCCOC(=O)Nc1nc2ccccc2o1	-9%[12 µM]
COc1ccc(OCc2cc(C(=O)N3CCCC3)no2)c2ccccc12	-5%

Next part.
structure	HepG2
COc1ccc(-c2nnc(-c3ccc(F)cc3)o2)cc1	-5%
O=C(Nc1nc2ccsc2c(=O)s1)c1ccc(F)cc1Cl	-15%
COc1ncccc1-c1nnn(-c2ccccc2)n1	-15%
CCC1(c2ccc(F)cc2)NC(=O)N(CC(=O)NC2CC2)C1=O (configuration not stated)	-21%
O=C(Cn1ccc([N+](=O)[O-])n1)N1CCCc2ccccc21	-8%
COc1ccc(N=Cc2c(O)[nH]c3ccccc23)cc1	6%
O/N=C/c1ccc(OCc2ccccc2)c(Br)c1	12%
Nc1nc(Nc2ccccc2F)sc1C(=O)c1ccccc1	26%
COc1cccc(-c2nnc(SCC(=O)N(C(C)C)C(C)C)o2)c1	-20%
CCOC(=O)c1ccc(N/C=C/C(=O)c2ccccc2)cc1	-11%
CCOC(=O)c1ccc(Nc2ncnc3nc[nH]c23)cc1	-2%
Cc1nn(-c2ccccc2)c(C)c1C(=O)OCC(=O)Nc1ccccc1F	6%
O=c1[nH]c2ccccc2nc1-c1ccc(Cl)cc1	-15%
O=C(Nc1nccs1)c1sc2cc(Cl)ccc2c1Cl	-22%
O=C(c1ccc(F)cc1)c1cc2ccccc2o1	-7%
Cc1ccc(C(=O)Nc2nc3ccc(S(C)(=O)=O)cc3s2)o1	26µM*
CN(C)c1ccc(/C=N/NC(=O)c2ccn(C)n2)cc1	59%
CCc1noc(C)c1C(=O)OC(C)C(=O)c1c(C)[nH]c2ccccc12 (configuration not stated)	-18%
Cc1cccc(-c2noc(CCc3ccccc3)n2)c1	42%
Cc1nc(-c2ccccc2)nc2[nH]c(C(C)C)cc(=O)c12	-20%
O=c1oc(CCO)cc2ccc(-c3ccc4[nH]ccc4c3)cc12	-10%
O=C1C(C=NCCN2CCOCC2)=C(O)c2ccccc21	-5%
Nc1c(-c2ccc(Cl)cc2)cnc2c(-c3ccccc3)cnn12	-4%
O=C(NC1=NCCS1)Nc1ccccc1	-15%
CSc1cccc(NC(=O)c2cnn3ccccc23)c1	-4%

Exported with each value named: part of the list above.
Cc1nn(-c2ccccc2)c(C)c1C(=O)OCC(=O)Nc1ccccc1F
  HepG2: 6%
O=c1[nH]c2ccccc2nc1-c1ccc(Cl)cc1
  HepG2: -15%
O=C(Nc1nccs1)c1sc2cc(Cl)ccc2c1Cl
  HepG2: -22%
O=C(c1ccc(F)cc1)c1cc2ccccc2o1
  HepG2: -7%

Remaining list, next part
structure	HepG2
Cc1ccc(Nc2nc(CSc3n[nH]c(N)n3)cs2)cc1	-22%
O=C(Nc1nc2cc3c(cc2s1)OCCO3)c1ccc([N+](=O)[O-])o1	26µM*
O=C(/C=C\c1ccc(-c2ccccc2)o1)c1ccccc1	-13%[6 µM]
C=CCNC(=O)C1CC1(c1cccc(C)c1)c1cccc(C)c1 (configuration not stated)	-3%
CCN(CC)CCn1c(SCC(=O)NCc2ccco2)nc2c(sc3ccccc32)c1=O	-18%
O=C1CC(c2ccccc2)Sc2nc3ccccc3n21 (configuration not stated)	-9%[6 µM]
O=C(O)c1ccccc1-c1ccccc1C(=O)Nc1ccc(-c2nc3cc(Cl)ccc3o2)cc1	-8%
O=C(N/N=C/c1ccc(N2CCOCC2)cc1)c1cccs1	-11%
CCCCCCC#Cc1cncc(C(=O)NNC(=O)Nc2cc(Cl)cc(Cl)c2)c1	-3%
O=C(O)COn1c(-c2ccccc2)nc2ccc([N+](=O)[O-])cc21	-9%
CCn1c(NC(=O)c2ccccc2)nc2ccccc21	-19%
Cc1cccc(C(=O)OCC(=O)c2ccc3c(c2)OCO3)c1O	-8%
C=CCN=c1scc(-c2ccco2)n1/N=C/c1ccc(O)c(O)c1O	26µM*
COc1ccc(NC(=O)c2ccc(Br)o2)cc1	-21%
O=C1c2ccncc2C(=O)N1CNc1ccc(Cl)cc1	-12%
O=C(/C=C/c1c(F)cccc1Cl)Nc1nc2ccccc2[nH]1	-11%
CCCc1nc2oc3ccccc3c(=O)c2c(=O)n1-c1ccc(C)cc1	-14%
O=[N+]([O-])c1cccc(-c2ccc(C(=S)N3CCOCC3)o2)c1	10%
CCc1cc(C(=O)Nc2ncccc2O)sc1C	-25%
O=c1c2ccccc2nc2n1CCc1c-2[nH]c2ccccc12	-20%
Brc1ccc(OCc2nc3ccccc3[nH]2)cc1	-16%[12 µM]
CCOC(=O)c1cnc2c(-c3ccccc3)cnn2c1C	-12%
C=CCNC(=O)c1ccc(-c2cccc([N+](=O)[O-])c2)o1	-5%
Cc1cc(=O)oc2cc(OCc3c(F)cccc3Cl)ccc12	15%
O=C(Nc1ncccc1O)c1ccc2c(c1)OCO2	26µM*

4 compounds picked at random from the list so far:
structure	HepG2
Cc1cc(=O)oc2cc(OCc3c(F)cccc3Cl)ccc12	15%
Cc1cccc(C(=O)OCC(=O)c2ccc3c(c2)OCO3)c1O	-8%
O=C1c2ccncc2C(=O)N1CNc1ccc(Cl)cc1	-12%
CCc1cc(C(=O)Nc2ncccc2O)sc1C	-25%

Further results follow:
structure	HepG2
C=CCNC(=O)c1cc2c(=O)n3ccccc3nc2s1	-4%
Cc1nc2nc(-c3cccs3)cn2nc1C	-16%
Fc1cccc(CSc2ccc(-c3ccco3)nn2)c1	-4%
O=c1c2ccccc2oc2cc(-c3ccc4cc[nH]c4c3)ccc12	-7%
Clc1ccccc1-c1ncc(-c2ccccc2)o1	-30%
Cn1c(C(=O)Nc2ccccc2)cc2sccc21	-23%
COc1ccc2cc(-c3cccnc3)ncc2c1	-8%
c1ccc2[nH]c(-c3ccnc4ccccc34)nc2c1	0%
CCCCSc1nnc(-c2c[nH]c3ccccc23)n1C	1%
Cc1ccc2nc(-c3ccc(NS(=O)(=O)c4ccc(F)c(F)c4)cc3)sc2c1	0%
Cc1ccc2oc(=O)c(/C=C(\O)c3cccs3)nc2c1	-9%
CC1(c2ccccn2)Nc2ccccc2-c2nc3ccccc3n21 (configuration not stated)	-7%
O=C(OCc1nc2ccccc2s1)C1CCN(S(=O)(=O)c2cccs2)CC1	-8%
COc1ccc(-c2nn(-c3ccccc3)cc2N)cc1	-3%
Cc1cc(C)n2nc(-c3ccc(Br)cc3)cc2n1	-13%
COC(=O)[C@H](Cc1ccccc1)NC(=O)NCc1ccc(C)cc1	-3%
N=c1c2c(ncn1CCCO)Oc1c(ccc3ccccc13)C2c1ccccc1 (configuration not stated)	26µM*
Cn1c2nc3ccccc3c-2nc2ccccc21	-1%
O=C(COc1ccc(F)cc1Br)N1CCc2ccccc21	11%
O=C(/C=C/c1ccc(O)cc1)c1ccccc1	-3%
Cc1cccn2cc(-c3ccc(F)cc3)nc12	-4%
CN(CC(=O)Nc1ccc(F)cc1)C(=O)COC(=O)c1cccc(N(C)C)c1	-1%
Fc1ccc2nc(Nc3nc4c(s3)CCCC4)sc2c1	-25%
COc1ccc(-n2ncc3c(NCc4cccnc4)ncnc32)cc1	-5%
O=C(NN=Cc1ccc(OC(F)F)cc1)c1ccc(NS(=O)(=O)c2cccs2)cc1	4%
Cn1cccc1C(=O)OCC(=O)Nc1ccc2c(c1)OCCO2	-9%
CCCC(=O)c1ccc(N2CCCC2)c(F)c1	-5%
Cc1cccc(NC(=O)NC(=O)c2ccccc2)n1	-12%
CN(C)c1ccc(-c2ccccc2)nn1	-12%
O=C1C(=Cc2cccs2)CCc2ccccc21	-21%
CN(C)C(=O)/C(=C/c1cn(-c2ccccc2)nc1-c1cccc([N+](=O)[O-])c1)NC(=O)c1ccccc1	-10%
COc1cc(/C=N/Nc2ccccn2)ccc1O	-6%
c1ccc(Cn2c(-c3ccco3)nc3nc4ccccc4nc32)cc1	-17%
O=C(Nc1ncccc1O)c1ccc2ccccc2c1	-16%
O=C(Nc1nc2c(s1)CCCC2)c1ccc2ncsc2c1	6%
O=C(COC(=O)c1ccc(O)cc1O)c1ccc2c(c1)OCCO2	1%
Cc1cccc(C(=O)O/N=C(\N)c2ccc(Cl)cc2)c1	-2%
C/C(=N\Nc1cccc2cccnc12)c1ccc[nH]1	-20%
O=C(Nc1cc(F)c(Br)cc1F)c1ccc(Cl)cc1	5%
c1ccc(-c2ccc3ccccc3n2)cc1	-17%
Cc1ccc(NC(=O)c2cnn(-c3ccccc3)c2C)c(C)c1	-5%
O=C(Nc1ccccc1)Nc1nnc(-c2ccccc2)s1	-9%
CCCC1CCC(c2ccc(OCC)cc2)=CC1=O (configuration not stated)	-5%
CC(C)c1[nH]nc2c1C(C1C=CCCC1)C(C#N)=C(N)O2 (configuration not stated)	2%
NC(=O)c1ccc(-c2noc(-c3cccc(Cl)c3)n2)cc1	5%[12 µM]
CC(=O)c1ccc(NCC2COc3ccccc3O2)c([N+](=O)[O-])c1 (configuration not stated)	-12%
Cc1noc(C)c1C(=O)Nc1nc(-c2cccs2)cs1	-17%
O=C(O)c1ccc(CSc2nnc(-c3ccccc3)n2-c2ccccc2)cc1	3%
Cc1ccc2c(c1)sc1nc(=O)n(-c3ccccc3)c(=O)n12	-2%
Cc1ccccc1Nc1nnc(SCC2CCCCO2)s1 (configuration not stated)	-21%[12 µM]
CCOC(=O)c1csc(-c2ccc3c(c2)CCO3)n1	-7%

Screens as filed in PubChem.

An excerpt; the hit share may differ from the screen's.
